Screens deposited in PubChem BioAssay by several laboratories.
CSC inhib: blocks cancer stem cells | AID 2717 | cancer stem cell-like cells viability, luminescence | inhibition, % at 7.5 µM | 300,000 tested, 1.1% active;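 active = mean at 75% or more and at least half the replicates too; inconclusive = mean and replicates disagree; tested in HMLE shEcad cells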;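 note: 0% = median of negative and 100% = median of positive control wells; the first replicate is given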
Rce1 inhib: blocks yeast Ras-converting enzyme; Q03530; yeast membranes, quenched prenylated peptide cleavage fluorescence; calls only; 290,000 tested, 0.27% active; AID 2563;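 active = fall in fluorescence gain of 50% or more versus controls, with final raw signal at or below 3038400; inconclusive = same 50% fall but final raw signal above 3038400; inactive = fall in fluorescence gain under 50%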;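 note: plate controls were neutral control wells for no effect and wells lacking membranes for full effect; tested at 10 µM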
Target sequence (Q03530 whole entry, looked up): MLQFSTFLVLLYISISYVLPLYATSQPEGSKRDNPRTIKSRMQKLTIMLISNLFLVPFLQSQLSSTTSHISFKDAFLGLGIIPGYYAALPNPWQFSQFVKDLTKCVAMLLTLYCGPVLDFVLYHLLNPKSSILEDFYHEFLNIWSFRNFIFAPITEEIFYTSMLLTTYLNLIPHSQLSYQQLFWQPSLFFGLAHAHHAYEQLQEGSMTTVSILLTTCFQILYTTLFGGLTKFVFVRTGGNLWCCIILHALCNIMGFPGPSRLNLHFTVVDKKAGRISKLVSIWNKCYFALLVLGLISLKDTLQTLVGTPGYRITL
MT1-MMP act inh: inhibitors of human MT1-MMP activation | AID 651647 | 360,000 tested, 0.061% active | GFP/RFP ratio change, % at 20 µM | P50281 | HT1080 RFP-PRO-GFP cells, GFP/RFP ratio fluorescence, overnight; percent of plate control window, DMSO zero;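 active = GFP/RFP ratio change of at least 30% with cell ATP level not reduced by more than half and red fluorescence within 50% of control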; note: strong numbers were not always called active
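Material – HT1080 RFP-PRO-GFP cells · Control set – DMSO wells and RFP-L50D-GFP cells · Incubation – overnight cell settling, then overnight compound exposure, 37 °C, 5% CO2 · Compound dosing – single-point 20 µM compound, 1% DMSO · Read-out – GFP/RFP fluorescence ratio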
eIF4H inh: inhibitors of RNA binding by human eIF4H; Q15056; eIF4H fluorescence polarization binding assay; inhibition, % at 35 µM; 290,000 tested, 0.94% active; AID 2012;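 active = 50% or more with normal probe brightness, or confirmed in later tests; inconclusive = above 50% with abnormal brightness, or retests that disagree; inactive = below 50% or failed in later tests; about a fifth of its hits are not listed in these tables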;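 note: calls also rest on retests at 20 µM and on dose response follow-up; 0% = protein and probe with vehicle and 100% = probe without protein; strong numbers were not always called active; many hits fall short of the cut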
UUG fidelity: modulators of start codon recognition fidelity in yeast. S. cerevisiae UUG-firefly luciferase reporter, luminescence/redox ratio. activity score, % at 18.7 µM. 350,000 tested, 0.13% active. AID 602363;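 active = replicate mean at a twofold rise or more, about +100% in these data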;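 note: firefly luciferase made from a UUG start codon reports start codon fidelity; reporter light over untreated wells divided by growth signal over untreated wells; some hits fall short of that in this replicate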
HIV Env fusion: HIV envelope-mediated fusion inhibition. HeLa-JRFL Env/CEM21 cell fusion, luciferase. inhibition, % at 12.3 µM. 360,000 tested, 1.1% active;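 active = mean replicate inhibition score of at least 50 and every replicate individually at or above 50; inconclusive = only one of the two criteria met; inactive = mean below 50 and not all replicates reaching 50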;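 note: 0% = plate neutral controls and 100% = maraviroc near 300 nM; one replicate is shown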
PABP polyA inh: PABP-poly(A) binding inhibition. PABP-poly(A) RNA binding, fluorescence polarization. inhibition, % at 35 µM. 290,000 tested, 1% active;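 active = 50% or more with normal probe brightness, or confirmed in later tests; inconclusive = above 50% with abnormal brightness, or retests that disagree; inactive = below 50% or failed in later tests; about a fifth of its hits are not listed in these tables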;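 note: calls also rest on retests at 20 µM and on dose response follow-up; controls were probe without protein and protein plus probe with vehicle; some compounds called inactive have numbers as strong as hits; many hits fall short of the cut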
eIF4H inh retest: also measured in eIF4H inh; calls as there; inhibition, %; compound at 20 µM; confirmation average;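 mean of two retest wells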
PABP polyA inh retest: recorded beside PABP polyA inh, whose call it bears; inhibition, %; compound at 20 µM; confirmation repeats;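 mean of two retest wells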
MT1-MMP act inh RFP: recorded beside MT1-MMP act inh, whose call it bears; RFP signal change, %; measured here: RFP expression control read;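 0 = vehicle wells; hits needed this value within 50% of zero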
Numbers without * were called inactive; i = inactive; u = inconclusive; x = no result given; + = active, no number; & = joins results of further samples. Rows are unselected; 2.9% or so of the library scored in one or more.

SMILES	CSC inhib	Rce1 inhib	MT1-MMP act inh	MT1-MMP act inh RFP	eIF4H inh	UUG fidelity	HIV Env fusion	PABP polyA inh	others
Cc1nc2ccc(NC(=O)c3ccc([N+](=O)[O-])cc3)cc2[nH]1	-2	i	4	0	-13	-4	-15	-6
Cc1ccccc1N1CC(C(=O)N2CC(C)CC(C)C2)CC1=O (stereo unspecified)	4	i	-4	-3	x	3	-32	x
COc1cccc(NC(=O)CCC(=O)Nc2cc(OC)c(NC(=O)c3cccs3)cc2OC)c1	x	i	-7	-4	-11	6	-12	1
Cc1ccc2oc(=O)c3cc(C(=O)NCCCN4CCc5ccccc5C4)sc3c2c1	-11	i	0	4	-7	-15	23	-5
O=[N+]([O-])c1cc(Cl)ccc1N1CCOCC1	0	i	3	5	24	-27	-18	6
COc1cc(OC)cc(-c2nc(=S)n3ccsc3n2)c1	-10	i	-1	2	0	x	6	3
CC[C@H](C)C(N)c1cn([C@@H](CC(N)=O)C(=O)N2CCNCC2)nn1 (stereo partly specified)	2	x	2	4	x	6	19	x
S=c1[nH]nc(-c2ccc(Br)cc2)n1-c1ccc(Br)cc1	-24	i	2	-3	-4	-17	-34	0
COc1ccc(N2C(=O)C3C(C2=O)C2C=CC3C23CC3)c([N+](=O)[O-])c1 (stereo unspecified)	1	i	1	6	-7	0	-11	5
COc1ccc(OC(C)C(=O)NC2CCCCCC2)cc1 (stereo unspecified)	-13	i	-3	-1	-3	-12	37	-8
CCOCCCNC(=O)c1cc(-c2ccc(Br)s2)nc2ccccc12	8	i	2	-2	4	-1	1	-8
O=[N+]([O-])c1ccc(-n2ccnc2)cc1	-1	i	2	5	6	-16	-62	2
O=C(NNC(=S)Nc1ccc(F)cc1)c1cccc([N+](=O)[O-])c1	-1	i	5	5	6	-11	1	-1
COc1ccc2c(c1)c(=O)oc1cc(OCC(=O)NCC3CCC(C(=O)O)CC3)ccc12 (stereo unspecified)	-7	i	0	2	8	-2	x	17
CCOC(=O)c1[nH]c(C)c(C(=O)C(C)C)c1C	-8	i	-7	-7	-10	-6	1	-1
O=C(COC(=O)c1ccc(CO)cc1)Nc1ccc(OC(F)F)cc1	7	i	10	6	9	x	-12	-12
Cc1ccc(C)c(C(O)c2ncc(-c3cccc(F)c3)[nH]2)c1 (stereo unspecified)	x	x	-1	1	x	-3	0	x
O=C(Nc1cccc(C(F)(F)F)c1)c1ccc2nc(-c3ccco3)c(-c3ccco3)nc2c1	29	i	0	-1	75*	-14	x	31*	eIF4H inh retest=90*;PABP polyA inh retest=62*
CCc1nonc1NC(=O)c1oc2ccc(Br)cc2c1C	-1	i	-2	-1	2	-6	-24	2
CCOC(=O)c1sc(=S)n(-c2cc(F)ccc2F)c1N	-2	i	3	4	1	-9	32	1
C[C@H](NS(=O)(=O)c1ccccc1)C(=O)OCC(=O)NC(=O)Nc1ccc2c(c1)OCCO2	-6	i	2	6	-2	-9	x	-9
COCCNC(=S)N/N=C(\C)c1cc2ccccc2o1	-6	i	1	2	-5	-43	-32	-8
COc1ccc(NC(=O)C2CC(=O)N/C(=N/N=C/c3ccco3)S2)cc1 (stereo unspecified)	-3	i	3	5	-3	-22	14	5
CCOC(=O)c1sc(NC(=O)CSc2nc(C)cc(-c3ccccc3)n2)c(C#N)c1C	-3	i	14	0	-8	16	8	4
O=C(CN1C(=O)NC2(CCCC2)C1=O)Nc1cccc(C(F)(F)F)c1	14	i	3	4	4	-18	0	0
SMILES	CSC inhib	Rce1 inhib	MT1-MMP act inh	MT1-MMP act inh RFP	eIF4H inh	UUG fidelity	HIV Env fusion	PABP polyA inh	others
COC(=O)C1=C(C)N(CCC2=CCCCC2)C(=O)C1	24	i	-11	-1	6	-1	x	-2
CC1CCN(c2c(NCC3CCC(C(=O)N4CCc5ccccc5C4)CC3)c(=O)c2=O)CC1 (stereo unspecified)	-11	i	4	-3	7	-2	27	-2
Cc1cc(C(=O)NCc2ccccc2)c(=O)[nH]c1C	2	i	4	5	-4	-12	-160	-4
CCc1n[nH]c(=S)n1/N=C/c1cc(Br)c(OC)cc1OC	2	i	1	0	5	x	13	1
CCOc1ccc(S(=O)(=O)NCCSCc2ccco2)cc1	1	i	-4	-1	-6	-6	x	-10
CCC(CC)C(=O)NCCc1cc2cc(C)c(C)cc2[nH]c1=O	-10	i	3	1	-6	-17	12	-9
Oc1ccc(C=NNC(=S)Nc2ccccc2)nc1	x	x	6	-2	x	-24	-15	x
CN(CC(=O)Nc1ccccc1Cl)C(=O)c1ccc(-c2cccc(C(F)(F)F)c2)o1	x	i	-1	-2	x	-6	-3	x
CC(NC(=O)COC(=O)c1ccccc1SCC(=O)N1CCCC1)c1ccccc1 (stereo unspecified)	0	i	-11	-1	x	x	7	x
O=C(Cn1c(SCC(=O)NC2CCCC2)nnc1-c1ccncc1)Nc1ccc2c(c1)OCO2	12	x	-2	2	3	-13	x	-5
COCCCNC(=O)CCCn1c(=O)[nH]c2ccccc2c1=O	-9	i	2	5	-1	-8	2	0
COCCNC(=O)C(c1ccccc1F)N(C(=O)C(=O)NC1CCCC1)C1CCCCC1 (stereo unspecified)	-6	i	-1	6	-1	x	8	0
CC1CCc2sc(C(=O)NNC(=S)NC3CC3)cc2C1 (stereo unspecified)	x	i	1	2	0	-5	-17	0
COC(=O)c1ccc2c(=O)n(CC3CCCO3)c(SCC(=O)Nc3ccccc3Cl)nc2c1 (stereo unspecified)	8	i	-3	-7	-5	-2	-23	1
Cc1ccc(NC(=O)Nc2nc(-c3ccc(C)s3)cs2)cc1	-8	i	-3	-18	-7	-8	x	2
COc1cc2c(cc1OC)C(c1ccc(O)cc1)NCC2 (stereo unspecified)	-8	i	-1	4	2	-13	-10	-13
Cc1cccc(N(CC(=O)NC(C)(C)C)C(=O)CNC(=O)c2cccs2)c1	-6	i	0	4	-10	x	-7	-3
O=C(CN1CCN(c2nc(-c3ccccc3)cs2)CC1)NCc1ccc2c(c1)OCO2	-6	i	x	x	12	5	17	-4
O=C(/C=C/c1ccc([N+](=O)[O-])cc1)N(c1ccccn1)C1CCCCC1	-3	i	10	0	5	x	20	14
C[C@H](C(=O)CC(=O)OC(C)(C)C)[C@H](O)c1ccccc1	-14	i	-2	1	5	-11	-1	11
CCOc1ccc(C(=O)CCC(=O)Nc2ncccc2O)cc1	x	i	-2	2	x	x	-11	x
O=C(NCCc1cccs1)C1CC(c2ccccc2F)=NO1 (stereo unspecified)	20	i	3	3	-10	2	-31	3
CCc1ccc(CNCCSc2nnnn2C)cc1	-6	i	5	0	-7	-8	28	5
CC(=O)Nc1ccccc1OCc1cnc(Cl)s1	-18	i	1	2	-7	-12	4	-4
CCOc1ccc(C(=O)NC(C)CCc2ccccc2)cc1 (stereo unspecified)	-4	i	-1	-3	2	0	-5	-2
SMILES	CSC inhib	Rce1 inhib	MT1-MMP act inh	MT1-MMP act inh RFP	eIF4H inh	UUG fidelity	HIV Env fusion	PABP polyA inh	others
CCC(=O)N(C)C[C@@H]1Oc2cc(Br)ccc2S(=O)(=O)N([C@@H](C)CO)C[C@@H]1C	x	x	-2	3	x	12&2&9	-12	x
COc1ccc(N2CCN(S(=O)(=O)c3cccc(C(F)(F)F)c3)CC2)cc1	x	i	-2	-4	-8	-13	-7	4
COc1cccc2cc(C(N)=O)oc12	-1	i	-1	0	-2	x	-7	-3
O=C(NCc1cccc(F)c1)c1cccc2c1C(=O)c1ccc(N3CCCC3)cc1S2(=O)=O	15	x	-121	0	x	0	x	x
CCOC(=O)C1CCCN(C(=O)c2cccc(S(=O)(=O)N3CCCC3)c2)C1 (stereo unspecified)	-4	x	3	2	x	-5	x	x
Cc1cc(N)c2cc(NC(=O)/C=C/c3ccccc3Cl)ccc2n1	141*	+	-42	-34	27	-20	x	u
CCOc1ccc(C2CC(=O)NC3=C2C(=O)CCC3)cc1Cl (stereo unspecified)	-18	x	3	-10	-4	-7	x	10
Cc1ccc(S(=O)(=O)NCC2CCC(C(=O)NCCCN3CCCC3=O)CC2)cc1 (stereo unspecified)	-4	i	-7	4	-4	-4	-2	3
CN(Cc1cccc(Cl)c1Cl)C(=O)CCNC(=O)c1ccco1	-13	x	0	-1	x	1	5	x
CSCCC(NC(=O)c1ccc(Cl)cc1Cl)C(=O)N1CC(C)OC(C)C1 (stereo unspecified)	-17	x	2	-1	x	-6	8	x
C=CCNS(=O)(=O)NC(=O)C1=C(N2CCCC2)COC1=O	x	x	2	3	x	-11	-8	x
Clc1ccc(Oc2nnnn2-c2ccccc2)cc1	-8	i	x	x	0	-3	-100	18
CCOC(=O)C(=N/O)/C(C)=N/NC(=O)C(=O)Nc1ccc(Cl)cc1	15	i	6	-3	1	-11	10	0
Cc1cc(C(=O)COC(=O)COc2ccc(C#N)cc2)c(C)n1C1CC1	-3	i	2	4	x	-2	2	x
O=C(CCN1CCCCC1)Nc1cccc(Br)c1	-12	i	2	3	-9	-14	-5	-8
CCOC(=O)C1(Cc2ccccc2)CCN(Cc2cnc(N3CCOCC3)s2)CC1	-18	i	1	-2	-6	-3	3	-8
Cc1ccc2c(c1)N(C(C)C(=O)NCc1cccs1)C(=O)CO2 (stereo unspecified)	5	i	-5	0	-8	-7	5	11
Cc1c(C=Nc2ccc(S(=O)(=O)CCO)cc2)c(O)[nH]c(=O)c1C#N	-10	i	-4	5	x	-5	-9	x
CN(C)S(=O)(=O)c1cccc2c1C(=O)c1ccccc1C2=O	-6	i	1	4	-3	x	x	1
CCCC(=O)N1c2ccc(-c3csc(N)n3)cc2CC1C (stereo unspecified)	4	i	4	2	3	-14	-179	9
Cc1nc(N2CCOCC2)nc2c1CCCC2	1	i	0	3	-8	-20	x	-2
Cc1ccc(C2C(C(=O)c3cc4ccccc4o3)=C(O)C(=O)N2CCN(C)C)o1 (stereo unspecified)	x	x	-5	7	x	-16	10	x
CC#CCCCC(=O)Nc1ccccc1C(=O)O	1	i	-2	5	-11	-10	-40	10
Cc1ccc(CSc2nc3ccncc3[nH]2)cc1	36	i	1	-1	-3	-84	-91	-6
O=C(CSc1nnc(-c2cccs2)n1Cc1ccco1)c1ccc2c(c1)OCO2	-2	i	2	-2	-10	-10	x	13
SMILES	CSC inhib	Rce1 inhib	MT1-MMP act inh	MT1-MMP act inh RFP	eIF4H inh	UUG fidelity	HIV Env fusion	PABP polyA inh	others
Cc1cc(C)c(C(=O)/C=C/c2ccco2)c(=O)[nH]1	-9	i	-1	0	36	6	5	28
O=C(N/N=C/C(Br)=C/c1ccccc1)NC1CCCCC1	44	i	3	1	-7	x	-32	1
Cc1cc(C(=O)COC(=O)c2cc(Cl)c(O)c(Cl)c2)c(C)n1C	x	x	4	0	x	5	-1	x
Cc1cc(C)cc(OCC(=O)NCc2nc(-c3ccccc3)no2)c1	-15	i	1	2	2	-9	x	-8
CCOC(=O)c1cccc(-n2c(C)nc3ccccc3c2=O)c1	-8	i	2	1	-8	-41	x	11
Cn1c(-c2ccccc2)cc2ccccc21	4	i	1	5	1	-9	-58	7
O=c1ccc2cc3c(-c4ccccc4)coc3cc2o1	5	i	-3	-7	-2	-16	30	7
COC(=O)c1sccc1NC(=O)Nc1ccc(F)cc1	-2	i	-4	-1	-2	2	x	-6
